Bioassay records (PubChem)
Yeast UUG start: alters start codon recognition fidelity in yeast | AID 602363 | 350,000 tested, 0.13% active | S. cerevisiae UUG-firefly luciferase reporter, luminescence/redox ratio | activity score, % at 18.7 µM;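 active = replicate mean at a twofold rise or more, about +100% in these data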;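 also: firefly luciferase made from a UUG start codon reports start codon fidelity; reporter light over untreated wells divided by growth signal over untreated wells; some hits fall short of that in this replicate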
MT1-MMP act inh: blocks activation of human MT1-MMP. HT1080 RFP-PRO-GFP cells, GFP/RFP ratio fluorescence, overnight; percent of plate control window, DMSO zero. GFP/RFP ratio change, % at 20 µM. 360,000 tested, 0.061% active. P50281. AID 651647;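 active = GFP/RFP ratio change of at least 30% with cell ATP level not reduced by more than half and red fluorescence within 50% of control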; also: strong numbers were not always called active
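Material: RFP-PRO-GFP reporter HT1080 cells. Dosing: single-point 20 µM compound, 1% DMSO. Controls: DMSO and RFP-L50D-GFP cell wells. Timing: cells overnight before dosing, compound overnight, 37 °C, 5% CO2. Measure: GFP/RFP fluorescence ratio.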
MT1-MMP act inh RFP: also measured in MT1-MMP act inh; calls as there; RFP signal change, %; measured here: RFP expression control read;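 0 = vehicle wells; hits needed this value within 50% of zero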
Numbers without * were called inactive; & = joins results of further samples. These rows are one share of the data; count on the stated rates, not on these rows.

SMILES	Yeast UUG start	MT1-MMP act inh	MT1-MMP act inh RFP
COc1ccc2[nH]c3c(c2c1)CCN1C(=O)C(CC(=O)NCc2ccc(OC)c(OC)c2)C[C@H](C(=O)N(C(C)C)C(C)C)[C@@]31C (stereo not given in full)	-7	6	0
COc1ccc(CCC(=O)N2CCN(S(=O)(=O)c3ccc(C)cc3)CC2)cc1	-6	0	-5
CN(CCOc1ccc(Cl)cc1)C(=O)c1cccc(S(=O)(=O)N2CCN(Cc3ccccc3)CC2)c1	-13	10	-32
COc1ccc(NC(=O)C2Cc3c(-c4ccccc4)ccnc3O2)cc1OC (stereo not given)	-9	18	-23
Cc1cn(CC(=O)NCC2CCCO2)c(=O)[nH]c1=O (stereo not given)	-9	5	2
CCOc1ccc(S(=O)(=O)N2CCCCC2)cc1NC(=O)CN1C(=O)NC(C)(C2CC2)C1=O (stereo not given)	3	0	5
Cc1noc(C)c1COc1cccc(C(=O)N(C)Cc2cccs2)c1	-11	3	-2
Cc1ccc(S(=O)(=O)NCCC(=O)OCC(=O)Nc2cccc(Cl)c2)cc1	37	1	3
C[C@@H](c1ccccc1)N1Cc2ccccc2Oc2cc(Br)ccc2S1(=O)=O	-21	-4	-6
CN(C)S(=O)(=O)c1ccc(NC(=O)CN2CCCC2c2ccc3c(c2)OCCCO3)cc1 (stereo not given)	-6	3	-8
O=S(=O)(Cc1ccccc1)CS(=O)(=O)Cc1ccccc1	-7	0	1
COC(=O)c1ccccc1S(=O)(=O)N1CCC(C(=O)OCC(=O)NC2CCCCC2C)CC1 (stereo not given)	22	1	0
O=C(CNS(=O)(=O)c1ccc2ccccc2c1)Nc1ccc(F)c(F)c1F	-24	-1	0
CCc1ccc(OC(=O)Cc2ccc(OC)c(S(=O)(=O)N3CCOCC3)c2)cc1	-3	0	-5
Nc1ncnc2c1ncn2[C@@H]1O[C@H](CNC(=O)[C@@H](N)COCc2ccccc2)[C@@H](O)[C@H]1O	4	0	4
Cn1c(=O)c2c(-c3ccccc3)n(-c3ccccc3S)cc2n(C)c1=O	9	0	2
COc1ccc(Cl)cc1N(CC(=O)NCc1ccccn1)S(=O)(=O)c1ccc(C)cc1	-25	-4	-5
CCOc1ccccc1OCCCC(=O)ON=C(N)c1ccccc1	5	1	7
CC1(C)NC(=O)N(CC(=O)OCC(=O)Nc2c(Br)cc([N+](=O)[O-])cc2Br)C1=O	-9	-1	6
c1coc(-c2cc3nc(NCc4ccc5c(c4)OCO5)ccn3n2)c1	-11	-1	0
Cn1cccc1C(=O)OCc1cc(-c2ccco2)on1	6	-3	6
Cc1c(NC(=O)C(C)OC(=O)c2ccc([N+](=O)[O-])cc2Cl)c(=O)n(-c2ccccc2)n1C (stereo not given)	-19	0	0
CCOC(=O)CC1c2nc3ccccc3cc2CN1C(=O)OCC (stereo not given)	1	3	2
CCNC(=O)C1(C)CCN(C(=O)c2cccc(OC(F)(F)F)c2)C1 (stereo not given)	-13	4	1
CCCCn1c(N)c(N(Cc2ccccc2OC)C(=O)c2cc(CC)c(C)s2)c(=O)[nH]c1=O	-17	1	2
Later entries:
SMILES	Yeast UUG start	MT1-MMP act inh	MT1-MMP act inh RFP
Cc1noc(C)c1C(=O)N1CCCC(C)(C(=O)NS(=O)(=O)C2CC2)C1 (stereo not given)	-26	-4	3
Cc1ccc(NC(=O)C2CC(=O)N(c3ccccc3Cl)C2)cc1S(=O)(=O)N1CCOCC1 (stereo not given)	-1	5	-1
CCCCc1ccc(S(=O)(=O)NC(=O)C2(C)CCN2C(=O)CC2CC2)cc1 (stereo not given)	-9	-3	2
N#Cc1ccccc1S(=O)(=O)N1CCN(CC(=O)NCC2(N3CCOCC3)CCCCC2)CC1	-1	-4	0
COc1ccc(CNC(=O)CN2C(=O)NC(Cc3ccccc3)(c3ccccc3)C2=O)cc1OC (stereo not given)	9	0	-4
CCc1nc2c(OCCC3CCCCC3)cccn2c1N(C)C(=O)C1CC1	-26	-10	-9
CCOc1ccc(CCNC(=O)COC(=O)C2CCN(S(=O)(=O)c3ccccc3)CC2)cc1OCC	-4	3	5
CCCN(C(=O)c1nc2nc(C)cc(C)n2n1)c1c(N)n(Cc2ccccc2)c(=O)[nH]c1=O	-17	-5	2
CCNC(=O)C1(C)CCCN(C(=O)c2ccccc2Br)C1 (stereo not given)	-11	-3	3
O=C(c1ccc(=O)[nH]c1)N(c1ccccc1)C(CCc1ccccc1)c1nc2ccccc2[nH]1 (stereo not given)	-8	-1	-2
CCCCN(C(=O)c1ccc2ccccc2c1)c1c(N)n(CCCC)c(=O)[nH]c1=O	-15	-1	4
CC(C)CC1NC(=O)N(CC(=O)Nc2ccc(-c3ccccc3)cc2)C1=O (stereo not given)	4	3	1
COc1ccccc1CN(C)C[C@@H]1OCc2cnnn2CCCC(=O)N([C@H](C)CO)C[C@H]1C	-8&-9	1	2
Cc1nc2ccc(Cl)cc2[nH]1	-2	5	3
CCN(CC)C(=O)C1=C(C)N(CCCOC)C(=O)C(CC(=O)NCC2CCCCC2)C1 (stereo not given)	-11	1	2
CCc1noc(C)c1C(=O)NNC(=O)c1cc(OC)cc(OC)c1	-4	-2	2
CCCC1NC(=O)c2cc3ccccc3cc2-n2c1nc1ccc(C)cc1c2=O (stereo not given)	0	-2	-11
CN1C(=O)CN(CCN2CC(=O)N(C)C(=O)C2)CC1=O	-7	-1	0
Cc1nn(CC(=O)NC2CCC(C)CC2)c(C)c1[N+](=O)[O-] (stereo not given)	-20	3	-1
Cc1ccc(-c2c(C)sc3nc(CN4CCN(CC(=O)NC5CC5)CC4)[nH]c(=O)c23)cc1	-11	-5	-1
O=C(CNc1ccccc1F)Nc1cc(S(=O)(=O)N2CCCCC2)ccc1Cl	6	3	-7
CC1(C(=O)Nc2cccc3cccnc23)CCN1C(=O)CCC1CCCC1 (stereo not given)	-4	-2	-4
CCNC(=O)C1(C)CCCN(C(=O)c2sc(-c3ccccc3)nc2C)C1 (stereo not given)	-1	4	5
COc1ccccc1CNC(=O)COC(=O)c1ccc2c(=O)n3c(nc2c1)CCCCC3	-4	5	4
OC(c1ccc(F)cc1)c1nc(-c2cccc(C(F)(F)F)c2)cs1 (stereo not given)	-10	1	2
Next part.
SMILES	Yeast UUG start	MT1-MMP act inh	MT1-MMP act inh RFP
CCCCNC(=O)C1(C)CCN1C(=O)c1cccc2c1OCCO2 (stereo not given)	3	-3	0
CCNC(=O)C1CCCN(Cc2ccc3ccccc3c2Br)CC1 (stereo not given)	-10	-1	-2
O=C(COC(=O)c1ccc2ccccc2n1)NC1CCCCC1	-11	1	4
CC(C)(C)Cc1c(-c2ccc(Cl)cc2)nc2c(Cl)cc(C(F)(F)F)cn12	-16	-3	-4
O=C1Cc2cc(S(=O)(=O)Nc3ccc(F)cc3Cl)ccc2N1	-5	0	-1
OC(c1cccc(Cl)c1)c1ncc(-c2ccc3ccccc3c2)[nH]1 (stereo not given)	-22	3	-3
COc1ccc(CC(=O)Nc2ccc(S(=O)(=O)N3CCCC3)cc2)c(OC)c1	5	-2	-4
CC1CCCN(CC(=O)NC(=O)NC2CCCCC2)C1 (stereo not given)	-9	-3	1
Cc1c(NC(=O)c2cccc(NC(=O)Cc3ccc(Cl)cc3)c2)c(=O)n(-c2ccccc2)n1C	-38	2	-6
O=C1OCCN1C(=O)[C@H]1[C@H](c2ccccc2)C(c2cccc(Cl)c2)=NN1c1ccccc1	-16	-2	0
O=C(O)C(=Cc1ccccc1Cl)c1ccccc1	-24	3	1
O=C(Nc1ccc(S(=O)(=O)N2CCOCC2)cc1)C1CCN(S(=O)(=O)c2ccc(Cl)cc2)CC1	3	-14	-22
Cn1cnnc1SCC(=O)Nc1ccc2ccccc2c1	-6	-3	-2
CCc1ccc(C(=O)NCC2(c3ccccc3)CCOCC2)o1	-11	0	-1
CCN(c1ccccc1)S(=O)(=O)c1ccc(C(=O)NCc2ccco2)cc1	-9	-4	-1
Cc1noc(C)c1C(=O)Nc1cccc(S(=O)(=O)N2CCCCC2)c1	-9	1	-1
O=C(CSc1nnc(-c2ccncc2)o1)Nc1ccc(F)c(F)c1	-18	2	2
Nc1ccc2c(c1)C(O)c1ccc(Cl)cc1-2 (stereo not given)	1	1	7
Cc1ccc(SCC(=O)Nc2ccc(N3CCOCC3)cc2)cc1C	-17	1	4
N#Cc1ccc(C(=O)OCC(=O)Nc2cccc(S(=O)(=O)N3CCCCC3)c2)cc1	-7	3	4
CCOc1ccc(N2CC(C(=O)NCC(=O)Nc3ccc(F)c(F)c3F)CC2=O)cc1 (stereo not given)	-6	1	4
COC(=O)N1CCCC(c2cc(C(=O)Nc3ccccc3Cl)no2)C1 (stereo not given)	-19	-13	-7
COc1ccccc1NS(=O)(=O)c1ccc(C(=O)NCc2ccncc2)cc1	-10	1	-5
CCOC(=O)N1C2c3ccccc3C(c3ccccc32)N1C(=O)OCC	-4	2	5
O=C(NN1C(=O)NC2(CCCCC2)C1=O)c1ccc(Cl)s1	2	2	3

15 structures out of the list, arranged by heavy-atom count, rising:
SMILES	Yeast UUG start	MT1-MMP act inh	MT1-MMP act inh RFP
Nc1ccc2c(c1)C(O)c1ccc(Cl)cc1-2 (stereo not given)	1	1	7
O=C(O)C(=Cc1ccccc1Cl)c1ccccc1	-24	3	1
CC1CCCN(CC(=O)NC(=O)NC2CCCCC2)C1 (stereo not given)	-9	-3	1
O=C(NN1C(=O)NC2(CCCCC2)C1=O)c1ccc(Cl)s1	2	2	3
O=C1Cc2cc(S(=O)(=O)Nc3ccc(F)cc3Cl)ccc2N1	-5	0	-1
CCc1ccc(C(=O)NCC2(c3ccccc3)CCOCC2)o1	-11	0	-1
CCCCNC(=O)C1(C)CCN1C(=O)c1cccc2c1OCCO2 (stereo not given)	3	-3	0
COC(=O)N1CCCC(c2cc(C(=O)Nc3ccccc3Cl)no2)C1 (stereo not given)	-19	-13	-7
CCOC(=O)N1C2c3ccccc3C(c3ccccc32)N1C(=O)OCC	-4	2	5
CCN(c1ccccc1)S(=O)(=O)c1ccc(C(=O)NCc2ccco2)cc1	-9	-4	-1
COc1ccccc1NS(=O)(=O)c1ccc(C(=O)NCc2ccncc2)cc1	-10	1	-5
N#Cc1ccc(C(=O)OCC(=O)Nc2cccc(S(=O)(=O)N3CCCCC3)c2)cc1	-7	3	4
CCOc1ccc(N2CC(C(=O)NCC(=O)Nc3ccc(F)c(F)c3F)CC2=O)cc1 (stereo not given)	-6	1	4
O=C1OCCN1C(=O)[C@H]1[C@H](c2ccccc2)C(c2cccc(Cl)c2)=NN1c1ccccc1	-16	-2	0
O=C(Nc1ccc(S(=O)(=O)N2CCOCC2)cc1)C1CCN(S(=O)(=O)c2ccc(Cl)cc2)CC1	3	-14	-22

Remaining list, next part:
SMILES	Yeast UUG start	MT1-MMP act inh	MT1-MMP act inh RFP
O=C(CSc1nnc(C2CC2)n1-c1ccccc1)N1CCNC1=O	-11	-2	3
OCCNc1ncnc2c1ncn2[C@H]1CN(Cc2ccc(-c3ccccc3)cc2)C[C@@H](CO)O1	2	-1	-15
COc1ccccc1Cc1c(-c2ccccc2)nc2c(C)cc(Br)cn12	-9	-7	-2
Cc1ccccc1S(=O)(=O)NC(=O)C1(C)CCN1C(=O)c1c(C)noc1C (stereo not given)	-18	-1	3
O=C(COc1ccc(Br)cc1)N1CCN(c2ncccn2)CC1	-32	2	-1
O=C1C=C(NS(=O)(=O)c2ccccc2)C(=O)c2ccccc21	-17	-1	9
COc1cccc(C(=O)Nc2cc(S(=O)(=O)N3CCOCC3)ccc2N2CCOCC2)c1	-7	-3	3
